Polio RdRp inh: poliovirus RdRp elongation inhibitors, primary screen, biochemical, fluorescence polarization, total intensity; Genome polyprotein (Poliovirus type 1 (strain Mahoney)), P03300; poliovirus polymerase elongation; hits give low values; % elongation, % (compound at 16.7 µg/mL); 150,000 compounds, 0.66% hits; in the data active = % elongation below about 90%; also: some results filed as inactive read as strong as hits
Target sequence (P03300 1749-2209 limits assumed): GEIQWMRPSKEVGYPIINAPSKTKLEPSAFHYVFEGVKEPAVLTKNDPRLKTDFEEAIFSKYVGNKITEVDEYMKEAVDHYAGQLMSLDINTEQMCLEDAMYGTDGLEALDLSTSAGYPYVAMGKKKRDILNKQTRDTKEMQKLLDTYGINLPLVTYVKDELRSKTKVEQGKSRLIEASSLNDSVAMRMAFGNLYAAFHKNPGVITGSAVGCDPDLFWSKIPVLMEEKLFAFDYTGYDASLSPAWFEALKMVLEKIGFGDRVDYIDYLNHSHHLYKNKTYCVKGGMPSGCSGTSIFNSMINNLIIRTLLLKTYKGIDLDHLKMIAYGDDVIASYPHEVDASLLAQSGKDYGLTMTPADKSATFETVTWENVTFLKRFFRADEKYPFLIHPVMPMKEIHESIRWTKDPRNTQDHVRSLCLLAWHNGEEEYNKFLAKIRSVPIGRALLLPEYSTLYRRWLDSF
Polio RdRp inh intensity: further read-out of Polio RdRp inh, marked with its call; % elongation; measured here: total intensity read-out; formula for this scale not given here;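 total fluorescence in place of polarization; lower means less elongation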
Starred values were filed as active, the others as inactive. A portion of the library; count on the stated rates, not on these rows.

SMILES | Polio RdRp inh | Polio RdRp inh intensity
COc1cc2ccccc2cc1C(=O)Nc1cccc(-c2nc3cc(C)c(C)cc3o2)c1 | 106.0 | 109.0
CCOc1ccccc1CNC(=O)CCn1cccn1 | 102.0 | 109.0
COc1cc(OC)c(NC(=O)c2cc(S(=O)(=O)N3CCCC3)cn2C)cc1Cl | 104.0 | 103.0
CCc1ccc(S(=O)(=O)N(C(C)=O)c2ccc3oc4c(c3c2)CCCC4)cc1 | 101.0 | 99.0
Cn1c(=O)n(C)c2cc(NS(=O)(=O)c3ccc(F)cc3)ccc21 | 102.0 | 105.0
COc1ccc(NC(=O)c2ccco2)cc1NC(=O)c1ccc(OC(C)C)cc1 | 104.0 | 101.0
CCOc1cc(CNc2ccc(O)cc2)cc(Br)c1OCc1ccccc1 | 100.0 | 103.0
Cc1cn2c(=O)cc(COC(=O)c3ccc(NC(=O)c4ccc(C(C)(C)C)cc4)cc3)nc2s1 | 102.0 | 106.0
COc1cccc(CNc2nccn(-c3cc(C)cc(C)c3)c2=O)c1 | 112.0 | 113.0
COc1ccc(-c2nc3c4ccccc4n(CC(=O)N4CCN(c5ccccc5F)CC4)c(=O)n3n2)cc1 | 98.0 | 105.0
CCOC(=O)c1c(C)oc2nc(C)nc(N3CCN(c4ccc(C(C)=O)cc4)CC3)c12 | 110.0 | 114.0
O=C(CCCn1c(=O)[nH]c2ccsc2c1=O)N1CCN(c2cccc(C(F)(F)F)c2)CC1 | 110.0 | 113.0
CCN1CCN(CCCNC(=O)c2ccc3c(c2)sc2nc(-c4ccc(C)cc4)cn23)CC1 | 107.0 | 102.0
Cc1ccc(C)c(NC(=O)C(=O)NCCc2csc(-c3ccc(C(F)(F)F)cc3)n2)c1 | 106.0 | 111.0
Cc1ccn2c(=O)cc(COc3ccc(NC(=O)c4ccccc4F)cc3)nc2c1 | 107.0 | 110.0
COc1ccc(S(=O)(=O)N(CC(=O)N2CCc3ccccc3C2)c2ccc(C)cc2)cc1 | 107.0 | 109.0
Cc1ccc(N2CC(NC(=O)c3ccc(S(=O)(=O)N4CCOCC4)cc3)CC2=O)cc1C (centres undefined) | 112.0 | 107.0
CCC(=O)N1c2ccc(S(=O)(=O)NCc3ccc(F)cc3)cc2CC1C (centres undefined) | 112.0 | 96.0
Cc1ccccc1OCc1nc2ccccc2n1Cc1ccccc1Cl | 104.0 | 109.0
Cc1cccc(-c2nc(SCc3ccc(Br)cc3)n3[nH]c(=O)cc3n2)c1 | 111.0 | 114.0
C=CCOc1ccc(C2c3c(oc4ccc(C)cc4c3=O)C(=O)N2CCCN2CCOCC2)cc1 (centres undefined) | 104.0 | 106.0
Cc1nn2c(=O)cc(CN(C)c3ccccc3)nc2s1 | 116.0 | 107.0
O=C(Cn1c(=O)c(C(F)(F)F)nc2ccccc21)Nc1cccc(Br)c1 | 113.0 | 104.0
CC(=O)Nc1ccc(-c2cc(C(=O)O)c3c(-c4ccccc4)[nH]nc3n2)cc1 | 103.0 | 104.0
CCOc1ccc(-n2ccn3c(CC(C)CC(=O)O)nnc3c2=O)cc1 (centres undefined) | 108.0 | 104.0

2 compounds drawn at random from those above, as already listed:
SMILES | Polio RdRp inh | Polio RdRp inh intensity
C=CCOc1ccc(C2c3c(oc4ccc(C)cc4c3=O)C(=O)N2CCCN2CCOCC2)cc1 (centres undefined) | 104.0 | 106.0
CCc1ccc(S(=O)(=O)N(C(C)=O)c2ccc3oc4c(c3c2)CCCC4)cc1 | 101.0 | 99.0

The listing picks up; the three compounds before the break are reprinted first.
SMILES | Polio RdRp inh | Polio RdRp inh intensity
O=C(Cn1c(=O)c(C(F)(F)F)nc2ccccc21)Nc1cccc(Br)c1 | 113.0 | 104.0
CC(=O)Nc1ccc(-c2cc(C(=O)O)c3c(-c4ccccc4)[nH]nc3n2)cc1 | 103.0 | 104.0
CCOc1ccc(-n2ccn3c(CC(C)CC(=O)O)nnc3c2=O)cc1 (centres undefined) | 108.0 | 104.0
CC(C)C(=O)N(Cc1ccccc1)S(=O)(=O)c1ccc2c(c1)oc(=O)n2C | 111.0 | 123.0
O=C(Cn1ccn(-c2cccc(Cl)c2)c(=O)c1=O)NCCc1ccccc1 | 105.0 | 110.0
CCCCOc1ccc(C(=O)NCCc2csc(-c3cccc(F)c3)n2)cc1 | 111.0 | 113.0
Oc1ccccc1-c1nc2ccc(Cl)cn2c1Nc1ccc2c(c1)OCCO2 | 109.0 | 111.0
CCc1nc2ccc(C(=O)NCc3cc(OC)ccc3OC)cc2nc1CC | 107.0 | 89.0
O=C(Nc1ccc2oc(-c3ccccc3)nc2c1)c1ccc2ccccc2c1 | 104.0 | 106.0
CCCCOC(=O)c1ccc(NC(=O)c2sc3nc(C)cc(C)c3c2N)cc1 | 108.0 | 110.0
COc1ccc(N2C(=O)CS(=O)(=O)C23C(=O)N(Cc2c(F)cccc2Cl)c2ccccc23)cc1 (centres undefined) | 108.0 | 107.0
Cc1ccc(N2CCN(C(=O)c3cn(C)c4ccc(S(=O)(=O)N5CCC(C)CC5)cc4c3=O)CC2C)cc1 (centres undefined) | 107.0 | 107.0
COc1ccc(NC(=O)CSc2ncc3c(n2)-c2ccccc2N(Cc2ccc(C)cc2)S3(=O)=O)cc1Cl | 106.0 | 111.0
CC(=O)N1c2nc(C(C)C)nn2C2(CCCCC2)[C@@H]2CCCC[C@@H]21 | 110.0 | 110.0
CCc1cnc2c(c1SCC(=O)NCc1ccccc1)c(=O)n(C)c(=O)n2C | 112.0 | 108.0
Cc1ccc(N2C(=O)c3n[nH]c(C)c3C2c2ccccc2Cl)cc1 (centres undefined) | 112.0 | 104.0
Cc1c(Cl)cccc1NC(=O)CSc1ncc(S(=O)(=O)c2ccc(C(C)C)cc2)c(=O)[nH]1 | 97.0 | 101.0
COc1ccc(NC(=O)c2nnn(CC(=O)Nc3cc(C)cc(C)c3)c2N)c(OC)c1 | 107.0 | 107.0
CCOC(=O)c1ccc(NC(=O)Cn2c(=O)cc(C(F)(F)F)c3c(C)nn(C)c32)cc1 | 108.0 | 107.0
COC(=O)c1cc2oc3ccccc3c2n1Cc1nc(-c2cccc(Cl)c2)oc1C | 108.0 | 101.0
COc1ccc(S(=O)(=O)NC(C)(C)CO)cc1-c1nnc2c3ccccc3c(C)nn12 | 105.0 | 107.0
CC(CNC(=O)CCn1c(=O)c2cccn2c2ccc(F)cc21)c1ccccc1 (centres undefined) | 106.0 | 112.0
Cc1ccc(Nc2c3c(nc4nc(-c5cccs5)nn24)CCCC3)cc1F | 106.0 | 106.0
COc1ccc(NC(=O)c2c(C)oc3ccc(O)c(CN4CCN(C)CC4)c23)cc1Cl | 110.0 | 107.0
CCC1CCCCN1CCCNC(=O)c1ccc2c(c1)N(Cc1ccccc1)C(=O)c1ccccc1S2(=O)=O (centres undefined) | 107.0 | 110.0
CCc1ccc(Nc2cc(C(=O)NCCCN(C)c3ccccc3)c3ccccc3n2)cc1 | 108.0 | 107.0
CC(=O)Nc1ccc(NC(=O)CCc2c(C)nc3c(c(C)nn3-c3ccc(C)cc3)c2C)cc1 | 112.0 | 108.0
Cc1ccc(-c2nnc(SCc3ccccc3C#N)o2)cc1 | 106.0 | 109.0

Other records:
SMILES | Polio RdRp inh | Polio RdRp inh intensity
Cc1ccc(CNC(=O)Cn2c(SCC(=O)Nc3ccc(F)cc3)nc3ccccc32)cc1 | 107.0 | 98.0
COc1cccc(NC(=O)C2CCN(c3nnc(C)c4c(C)n(-c5ccccc5)nc34)CC2)c1 | 99.0 | 92.0
CCCCOc1ccc(S(=O)(=O)N2CCN(c3ccccc3OCC)CC2)cc1 | 108.0 | 105.0
COc1cccc(-n2c(-c3ccco3)nc3c(cnn3-c3ccccc3C)c2=O)c1 | 109.0 | 106.0
COc1ccc(CCNC(=O)c2ccc3c(c2)N(Cc2ccc(F)cc2)CCS3)cc1OC | 105.0 | 97.0
CC(C)c1ccc(Nc2cc(C(=O)NCCc3ccccc3)c3ccccc3n2)cc1 | 104.0 | 108.0
O=C(Cn1ncc2c3ccccc3n(Cc3cccc(Cl)c3)c2c1=O)NCCC1=CCCCC1 | 150.0 | 175.0
CCC(C(=O)NCCc1cc(OC)ccc1OC)n1nc(C)c2c(C)n(-c3ccccc3)nc2c1=O (centres undefined) | 106.0 | 105.0
CCn1c(=O)cc(OCC(=O)N(C)c2cc(Cl)ccc2C)c2ccccc21 | 101.0 | 106.0
CCCN(CCC)CCNC(=O)c1cc2c(-c3ccccc3F)nn(C)c2s1 | 94.0 | 105.0
Cc1cc(OCC(=O)NCC2(N(C)C)CCCCC2)cc(C)c1Cl | 109.0 | 111.0
Cc1ccc(S(=O)(=O)N2CC=C(c3c(C)n(CC(=O)N4CCCC4)c4ccccc34)CC2)cc1C | 101.0 | 106.0
Cn1cc(S(=O)(=O)c2cccc(Cl)c2)c(=O)c2cc(F)c(N3CCN(c4ccccc4)CC3)cc21 | 102.0 | 98.0
COc1ccccc1NC(=O)C1=C(C)Nc2nc(SCc3ccccc3Cl)nn2C1c1ccccn1 (centres undefined) | 103.0 | 100.0
O=C(NCc1ccc(F)cc1)C1CCN(C(=O)c2ccc(-n3ccc4ccccc43)s2)CC1 | 110.0 | 112.0
CSc1ccc(CCNC(=O)Cn2c(C)c3cnn(-c4ccccc4)c(=O)c3c2C)cc1 | 108.0 | 112.0
Cc1ccc(C)c(N2CCN(C(c3ccccc3)c3nnc(-c4ccccc4F)o3)CC2)c1 (centres undefined) | 105.0 | 109.0
Cc1oc2ncn(CC(C)C)c(=O)c2c1C(=O)NCCCN(C)Cc1ccccc1 | 112.0 | 110.0
O=c1cc(-c2ccccc2)n2c(SCc3ccc(Cl)cc3)nnc2[nH]1 | 106.0 | 108.0
CN1C(=O)C2(c3ccccc31)N(c1ccccc1)C(=O)CS2(=O)=O (centres undefined) | 103.0 | 111.0
CCN(CC)c1nc2ccccc2nc1C(=O)Nc1ccc(C(C)=O)cc1 | 105.0 | 111.0
COC(=O)c1ccccc1NC(=O)N(Cc1ccc(C)cc1)Cc1cccn1-c1nnc(N2CCCC2=O)s1 | 110.0 | 107.0
O=C(Nc1ccccc1Br)C(Cc1ccccc1)NS(=O)(=O)c1cccc2nsnc12 (centres undefined) | 111.0 | 110.0
COc1cc2[nH]c(=O)n(Cc3ccc(C(=O)N4CCN(c5cccc(C)c5C)CC4)cc3)c(=O)c2cc1OC | 101.0 | 96.0
Cc1nn(C)c2c1c(-c1ccccc1)cc(=O)n2Cc1ccc(F)cc1Cl | 103.0 | 106.0

(cont.)
SMILES | Polio RdRp inh | Polio RdRp inh intensity
CN(c1ccccc1C(=O)O)S(=O)(=O)c1ccc2[nH]c(=O)oc2c1 | 105.0 | 106.0
CCOc1ccc(-c2nc(Cn3ccn4nc(-c5ccc(OCC)c(Cl)c5)cc4c3=O)c(C)o2)cc1 | 106.0 | 105.0
O=C(NC1CC(=O)N(c2ccc(Cl)cc2)C1)c1ccc(S(=O)(=O)N2CCCC2)cc1 (centres undefined) | 112.0 | 103.0
CCC1CN(C(=O)N2CCC(C(=O)NCc3ccc(N(C)C)cc3)CC2)c2ccccc2O1 (centres undefined) | 109.0 | 109.0
CC1Cn2c(C(=O)NCc3cccc(Br)c3)cc3cccc(c32)S1 (centres undefined) | 106.0 | 111.0
CCN(CC)CCCNC(=O)CCC(=O)NNc1nc2ccccc2c2nc(C)nn12 | 94.0 | 99.0
Cc1cc(C)c(NC(=O)CSc2nnc3[nH]c(=O)cc(C)n23)c(C)c1 | 103.0 | 107.0
O=C(NCCc1ccc(Cl)cc1)c1cc2c(s1)-c1ccccc1OC2 | 100.0 | 107.0
O=C1c2oc3ccccc3c(=O)c2C(c2ccccc2)N1Cc1ccc2c(c1)OCO2 (centres undefined) | 105.0 | 106.0
CCN1CCN(c2ncnc3c2cnn3-c2ccc(C)c(C)c2)CC1 | 111.0 | 110.0
O=C(CCSCc1cccc(F)c1)NCCc1ccccc1 | 105.0 | 99.0
COc1ccc(NC(=O)c2ccc3c(=O)n4nc(Nc5cc(C)ccc5C)sc4nc3c2)cc1 | 112.0 | 104.0
CC(=O)N1CCCC1c1nc2ccccc2n1Cc1cccc(Cl)c1 (centres undefined) | 105.0 | 110.0
CCCNC(=O)CSc1nc(-c2ccc(OC)cc2)cc(C(F)(F)F)n1 | 107.0 | 110.0
COC(=O)c1ccc(OC)c(Cn2c(=O)n(-c3ccc(C)cc3)c(=O)c3c2cnn3C)c1 | 101.0 | 104.0
Cc1c(C(=O)NCc2cccc(Cl)c2)sc2nc3n(c(=O)c12)CCCC3 | 111.0 | 114.0
Cc1ccc(-c2nc(CSc3nncn4c3cc3occc34)c(C)o2)cc1 | 110.0 | 115.0
Cc1ccc(C(=O)c2sc(Nc3ccccc3)c(S(=O)(=O)c3ccccc3)c2N)c(C)c1 | 111.0 | 101.0
COc1ccc(OCc2ccc(-c3nc(C#N)c(N4CCC(C)CC4)o3)o2)cc1 | 107.0 | 113.0
COc1ccccc1NC(=O)CSC1=Nc2ccccc2C2=NC(CC(=O)NCc3ccc4c(c3)OCO4)C(=O)N12 (centres undefined) | 102.0 | 97.0
COc1ccc(CCNc2nc(-c3ccc(OC)c(OC)c3)cc(C(F)(F)F)n2)cc1OC | 105.0 | 99.0

Profiles from above:
Results for `CCN1CCN(c2ncnc3c2cnn3-c2ccc(C)c(C)c2)CC1` : Polio RdRp inh: 111.0; Polio RdRp inh intensity: 110.0
Results for `Cc1c(C(=O)NCc2cccc(Cl)c2)sc2nc3n(c(=O)c12)CCCC3` : Polio RdRp inh: 111.0; Polio RdRp inh intensity: 114.0

From PubChem
